dFosB activator: mouse delta FosB homodimer activation; P13346; purified delta FosB, TAMRA-CDK5 oligo fluorescence polarization; percent of positive-control signal above neutral wells; activation, % at 25 µM; actives 0.99% (n = 340,000); AID 493131;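 active = mean activation above about 17%, with every replicate also reaching it, limit read from the data, passing the limit was not always enough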;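 note: fluorescence polarization rise as delta FosB binds a TAMRA Cdk5 AP-1 oligo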
PKA-R2B activ: activates the human PKA-R2B holoenzyme complex; PKA-R2B holoenzyme dissociation, Cy5-IP20 fluorescence polarization; R2B truncated from residue 108, S112A mutant; 0% DMSO only, 100% 113 µM cGMP; activation, % at 11.4 µM; actives 0.079% (n = 340,000); AID 504700;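 active = activation above a cutoff set at the mean over all compounds plus 3 SD, cut at about 18% in these data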;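 note: higher means more holoenzyme dissociation and a rise in polarization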
CDK5 inh: inhibitors of human CDK5/p35 kinase. Recombinant CDK5/p35, ADP-Glo luminescence, 60 min. Q00535+Q15078. actives 0.01% (n = 330,000). inhibition, % at 10 µM;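 active = highest replicate inhibition of at least 50% and at least 75% of replicates reaching 50%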;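 note: plate controls were DMSO neutral control for no effect and GW8510 at 10 µM for full effect; many of its hits are not listed in these tables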
PKA-R1A activ: PKA-R1A complex activation; activation, % at 11.4 µM; PKA-R1A dissociation, Cy5-IP20 fluorescence polarization; scaled: DMSO 0%, 113 µM cGMP 100%; AID 504707; actives 0.083% (n = 340,000);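 active = percent activation above the mean of all tested compounds plus 3 SD, cut at about 19% in these data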;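 note: higher means more PKAc released from R1A so a rise in polarization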
NSD2 HMT inh: inhibitors of human histone methyltransferase NSD2; inhibition, % at 12.5 µM; NSD2 peptide methylation, AlphaScreen, 120 min; actives 0.54% (n = 310,000); in the data active = inhibition above about 50%
DSG3 Ab inh: inhibitors of pemphigus antibody binding to human desmoglein-3. P32926. DSG3-coupled beads, scFv-anti-DSG3-GFP binding, flow cytometry; stronger effect = lower value. binding (percent of control), % at 10 µM. actives 0.48% (n = 310,000);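 active = binding more than 3 SD below its plate's average and above zero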;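 note: hits lower antibody fragment binding to DSG3; some compounds called inactive have numbers as strong as hits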
* hit, by the source's call; · = no result given.

Short forms: A = dFosB activator; B = PKA-R2B activ; C = CDK5 inh; D = PKA-R1A activ; E = NSD2 HMT inh; F = DSG3 Ab inh
SMILES: C=C(CN(C)C)C(=O)c1ccc2c(c1)OCO2
  A: 0 | B: 2 | C: -0.4 | D: -8 | E: 8 | F: ·

SMILES: CC(=O)c1cn(S(=O)(=O)c2ccccc2)c2ccccc12
  A: -3 | B: -6 | C: 1.3 | D: -4 | E: -1 | F: 85

SMILES: c1ccc(CN2CCC3CC2c2cc(N4CCOCC4)ccc23)cc1 (stereo not drawn)
  A: 6 | B: -2 | C: 0.3 | D: -6 | E: · | F: 102

SMILES: O=c1c(Cl)c(O)ccn1C1OC(CO)C(O)C1O (stereo not drawn)
  A: -3 | B: -6 | C: -1.7 | D: -6 | E: -1 | F: 89

SMILES: O=C1NC[C@H](c2ccccc2)OC(=O)[C@@H](Cc2ccc(F)cc2)CC/C=C/C[C@@H]1CC(=O)N(CCO)Cc1ccccc1
  A: -5 | B: -4 | C: -0.9 | D: 2 | E: · | F: 107

SMILES: O=C1NN(c2ccccc2)C(=O)/C1=C/c1ccc(Sc2ccc(Cl)cc2)o1
  A: -8 | B: 2 | C: -2.0 | D: -6 | E: · | F: 84

SMILES: O=[N+]([O-])c1ccc(S(=O)Cc2ccccc2)c([N+](=O)[O-])c1 (stereo not drawn)
  A: 5 | B: -4 | C: 0.9 | D: 2 | E: 4 | F: 98

SMILES: C#Cc1cccc(N2C(=O)C3C4C=CC(C3C2=O)C2C(=O)N(c3cccc(C#C)c3)C(=O)C42)c1 (stereo not drawn)
  A: 6 | B: -3 | C: -0.6 | D: 5 | E: -3 | F: 95

SMILES: CCCCNc1c(-c2ccc(SC3CCCCC3)cc2)nc2cnccn12
  A: 7 | B: 3 | C: -0.5 | D: -8 | E: -22 | F: 151

SMILES: C[C@H]1O[C@H]1P(=O)(O)O
  A: -1 | B: -2 | C: 1.1 | D: -7 | E: · | F: 87

SMILES: O=C(Cn1c(C(=O)c2ccccc2)nc2ccccc21)c1ccc(Cl)cc1
  A: -9 | B: -9 | C: -0.2 | D: -3 | E: -3 | F: ·

Single records (already shown). Order of screens: dFosB activator	PKA-R2B activ	CDK5 inh	PKA-R1A activ	NSD2 HMT inh	DSG3 Ab inh
O=C1NC[C@H](c2ccccc2)OC(=O)[C@@H](Cc2ccc(F)cc2)CC/C=C/C[C@@H]1CC(=O)N(CCO)Cc1ccccc1 across the screens: -5	-4	-0.9	2	·	107
O=C1NN(c2ccccc2)C(=O)/C1=C/c1ccc(Sc2ccc(Cl)cc2)o1 across the screens: -8	2	-2.0	-6	·	84

A second format for 4 compounds above.
SMILES: O=C(Cn1c(C(=O)c2ccccc2)nc2ccccc21)c1ccc(Cl)cc1
  dFosB activator = -9
  PKA-R2B activ = -9
  CDK5 inh = -0.2
  PKA-R1A activ = -3
  NSD2 HMT inh = -3
  DSG3 Ab inh = ·

SMILES: C[C@H]1O[C@H]1P(=O)(O)O
  dFosB activator = -1
  PKA-R2B activ = -2
  CDK5 inh = 1.1
  PKA-R1A activ = -7
  NSD2 HMT inh = ·
  DSG3 Ab inh = 87

SMILES: C#Cc1cccc(N2C(=O)C3C4C=CC(C3C2=O)C2C(=O)N(c3cccc(C#C)c3)C(=O)C42)c1 (stereo not drawn)
  dFosB activator = 6
  PKA-R2B activ = -3
  CDK5 inh = -0.6
  PKA-R1A activ = 5
  NSD2 HMT inh = -3
  DSG3 Ab inh = 95

SMILES: O=c1c(Cl)c(O)ccn1C1OC(CO)C(O)C1O (stereo not drawn)
  dFosB activator = -3
  PKA-R2B activ = -6
  CDK5 inh = -1.7
  PKA-R1A activ = -6
  NSD2 HMT inh = -1
  DSG3 Ab inh = 89

Some of the compounds tested; rates above refer to the full screens.
